Sfp inh: inhibitors of Bacillus subtilis Sfp phosphopantetheinyl transferase; Biochemical Sfp PPTase activity, qHTS; Potency, µM, for the others: max response, negative = inhibition, most hits filed as inhibitors; hit rate 3.5% among 310,000; AID 1490; active = well fitted inhibition curve with a large enough effect; inconclusive = small, poorly fitted or top-dose-only effect, or another doubt; inactive = no such curve, though single readings can be large or run the other way;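 also: the enzyme is Sfp with the accession as filed and its product quenches rhodamine fluorescence; potency is read from the fitted curve at half-maximal effect; 0% = enzyme reaction without inhibitor and -100% = no enzyme wells; top concentration of the series not given in the record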
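Reaction rates are the 30-min fluorescence difference (ex 525, em 598 nm) in wells containing 15 nM Sfp, 5 uM rhodamine-CoA and 12.5 uM BHQ-2-YbbR at pH 7.6 with 10 mM MgCl2.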
gsp agonist: gsp mutant agonism; gsp mutant cells, cAMP HTRF, 30 min; control for the full effect not named in the record; Potency, µM (titrated, usually from 76.9 µM), inactives show at the highest dose activation (cAMP increase), hits mostly activators; hit rate 0.13% among 340,000; active = well fitted activation curve with a large enough effect; inconclusive = small, poorly fitted or top-dose-only effect, or another doubt; inactive = no such curve, though single readings can be large or run the other way; cell line not stated here;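 also: phosphodiesterase inhibitor Ro 20-1724 added with compounds to block cAMP breakdown; potency is read from the fitted curve at half-maximal effect; nearly all actives have a fitted effect of over 60% in size; about a fifth of the inactives were tested at one dose only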
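Cells in DMEM/10% FBS with G418 were pretreated with compounds in DMSO plus […] (300 uM stock) for 30 min at 37C. cAMP was measured by HTRF (cAMP-d2 plus anti-cAMP antibody-K) after 30 min at room temperature.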
Menin-MLL FL inh: menin-MLL binding inhibition, fluorescein peptide | FP activity change, % at 61.4 µM | Fluorescence polarization, fluorescein-MLL peptide displacement from menin | 290,000 tested, under 10 active; inconclusive = falling polarisation curve, or a change in total fluorescence; inactive = total fluorescence flat and polarisation flat or rising; no compound was filed as active; the % refers to the polarisation; negative = inhibition;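 also: % of control where 0% means no effect; inhibitors lower the polarisation; unlabelled MLL peptide was the positive control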
D2 ag: activates the human D2 dopamine receptor | DiscoveRx PathHunter D2 beta-arrestin, luminescence, 90 min; 100% = 57 uM dopamine signal | activation, % (test concentration not listed) | hit rate 0.084% among 360,000 | AID 624465; in the data active = activation above about 40%; inconclusive = about 15% to 40%; inactive = below about 15%; also: compound concentration not given in the record; the text of the record calls up to 30% inactive
Target sequence (P14416 whole entry, looked up): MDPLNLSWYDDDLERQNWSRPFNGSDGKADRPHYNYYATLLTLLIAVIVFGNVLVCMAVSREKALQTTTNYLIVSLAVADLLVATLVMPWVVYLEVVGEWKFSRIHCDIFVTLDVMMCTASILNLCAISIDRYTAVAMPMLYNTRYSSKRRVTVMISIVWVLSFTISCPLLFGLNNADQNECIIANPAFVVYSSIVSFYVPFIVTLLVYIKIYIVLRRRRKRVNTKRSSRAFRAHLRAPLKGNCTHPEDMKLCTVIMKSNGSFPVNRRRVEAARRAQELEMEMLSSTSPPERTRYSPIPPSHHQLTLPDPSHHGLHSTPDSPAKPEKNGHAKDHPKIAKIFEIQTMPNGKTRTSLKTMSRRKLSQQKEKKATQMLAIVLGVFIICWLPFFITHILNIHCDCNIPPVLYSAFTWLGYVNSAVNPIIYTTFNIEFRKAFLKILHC
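Agonist mode: compounds alone added to overnight-plated D2 PathHunter cells for 90 min at 37 C, with 57 uM final dopamine (EC100) defining full response. Beta-arrestin recruitment detected by chemiluminescent reagent, read after 1 h at ambient temperature.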
PINK1 expr mod: changes PINK1 expression; PINK1 immunofluorescence, high-content cytometry, 24 h; Potency, µM (titrated, usually from 76.6 µM), without a hit: at the highest dose activation (PINK1 increase), usual class: activators; hit rate 0.2% among 410,000; AID 624263; active = well fitted activation curve with a large enough effect; inconclusive = small, poorly fitted or top-dose-only effect; inactive = flat fitted curve, though single readings scatter; cell line not stated here;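 also: potency is read from the fitted curve at half-maximal effect; % of control where 0% means no effect; nearly all actives have a fitted effect of over 65% in size; a mitochondrial uncoupler was the plate control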
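Cells are seeded, rested 12 hours, then given compound at five concentrations or DMSO for 24 hours. After fixation, blocking and antibody staining, PINK1 amount and mitochondrial localization are scored; CCCP serves as control.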
gsp antag: antagonizes gsp, the McCune-Albright syndrome mutation; hit rate 0.4% among 340,000; Potency, µM (titrated, usually from 76.9 µM), inactives show top-dose activity change, negative = inhibition, actives largely listed as inhibitors; gsp-mutant cells, cAMP HTRF, 30 min; control for the full effect not named in the record; active = falling curve of any shape with a large fitted effect; inconclusive = falling curve, mostly with a smaller effect; inactive = flat or rising curve; cell line not stated here;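 also: intracellular cAMP measured with PDE inhibitor Ro 20-1724 present during compound exposure; potency is read from the fitted curve at half-maximal effect; % is scaled to controls: 0 for no effect and ±100 for the full control effect; nearly all actives have a fitted effect of over 65% in size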
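G418-selected cells were plated in DMEM/10% FBS for 16-24 h at 37C, then treated with compounds plus the PDE inhibitor […] (300 uM solution added) for 30 min at 37C. Intracellular cAMP was measured by HTRF after 30 min lysis at room temperature.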
ClpP mod: qHTS Assay for Activators of ClpP. AID 651965, 2013. ATP-dependent Clp protease proteolytic subunit (Bacillus subtilis (strain 168)), P80244. hit rate 1.9% among 340,000. purified B. subtilis ClpP, FRET peptide cleavage, 20 min. Potency, µM (highest dose often 57.5 µM), for the others: at the highest dose activity change, negative = active; active = well fitted falling curve with a large enough effect; inconclusive = small, poorly fitted or top-dose-only effect; inactive = no such curve, though single readings can be large or run the other way; also: potency is read from the fitted curve at half-maximal effect; the source files actives as falling curves though it sought activators and does not explain the sign; nearly all actives have a fitted effect of over 65% in size; many hits overshoot -100%
Target sequence (P80244 whole entry, looked up): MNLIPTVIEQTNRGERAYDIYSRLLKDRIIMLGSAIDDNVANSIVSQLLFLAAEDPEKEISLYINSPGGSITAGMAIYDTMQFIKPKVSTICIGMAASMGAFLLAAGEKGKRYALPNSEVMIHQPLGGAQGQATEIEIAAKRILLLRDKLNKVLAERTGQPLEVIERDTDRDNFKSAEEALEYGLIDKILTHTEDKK
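Buffer: 100 mM Tris/HCl pH8, 100 mM KCl, 0.05% low protease BSA, 2.5% glycerol, 0.01% Tween-20. ClpP 10 microg/mL final; 20 min RT; delta FRET normalized to ADEP and DMSO controls.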
The depositor's hits bear a star; ? = inconclusive; . = not tested or not shown; [ ] = remark or other dose.

SMILES | Sfp inh | gsp agonist | Menin-MLL FL inh | D2 ag | PINK1 expr mod | gsp antag | ClpP mod
COc1ccc(N(CC(=O)NC2CCCC2)C(=O)c2ccc(N3CCCCC3)nc2)cc1 | 2.0% | -4.9% | 1.5 | -0.5 | -1.0% | -1.5% | -0.8%
COc1ccc(CC(=O)O/N=C(\N)Cc2ccc(OC)c(OC)c2)cc1 | -8.8% | -31.9% | 0.7 | 3.9 | ? | -8.1% | -1.1%
CC1(C)CC(=O)C2=C(C1)NCN(Cc1ccc3c(c1)OCO3)C2 | 4.5% | 1.0% | -2.0 | -1.3 | -1.4% | -10.6% | -0.8%
COc1ccc(S(=O)(=O)N(C)CC(=O)Nc2ccc(C(F)(F)F)cc2)cc1Cl | 12.4% | -6.8% | -0.3 | -0.2 | 11.0%[38.3 µM] | -16.5% | -1.7%
CCn1c(SCc2ccccc2)nc2cc(OC)c(OC)cc2c1=O | ? | -21.7% | -6.7 | 2.3 | 0.3% | -2.2% | 1.7%
O=C(NCc1cccs1)C(=O)NCC1OCCCN1S(=O)(=O)c1cc(F)ccc1F (centres undefined) | 12.8% | 1.6% | . | -0.6 | 3.8% | -4.2% | -2.0%
O=C(N/N=C/c1c[nH]c2ccccc12)c1cc(-c2ccc3ccccc3c2)n[nH]1 | 21.2% | -23.2% | 6.9 | 7.7 | 0.8% | 8.2% | -23.6%
Cc1sc2ncnc(NCc3ccco3)c2c1C | -9.9% | -36.6%[inhibitor] | ? | 1.8 | ? | -5.2% | -4.2%
O=c1/c(=C\c2cccn2-c2ccccc2)sc2nc3ccccc3n12 | -15.7% | -46.3%[inhibitor] | ? | -2.7 | 12.2% | -3.2% | 1.2%
CCOc1ccc(NC(=O)CSc2nnnn2C2CC2)cc1S(=O)(=O)N1CCCC1 | . | -5.9% | . | -0.1 | 0.5% | -8.0% | -0.4%
O=C1Nc2ncccc2OC1CCCl (centres undefined) | 16.4% | 0.5%[15.4 µM] | 3.9 | -3.7 | 1.1% | 6.6% | -2.2%
CC(C)CC(=O)c1c[nH]c(C(=O)NCCCN2CCOCC2)c1 | 6.7% | -20.0% | -1.7 | -1.6 | 2.2%[38.3 µM] | 6.4% | 3.4%
CN(C)C(CNC(=O)c1ccc2c(=O)n(-c3ccccc3F)c(=S)[nH]c2c1)Cc1ccccc1 (centres undefined) | 15.7% | -1.3%[15.4 µM] | -1.2 | 1.3 | 2.9% | -10.2% | 0.9%
O=C(NCCC1CCCCN1S(=O)(=O)c1ccccc1)C(=O)Nc1ccc(F)cc1F (centres undefined) | . | 6.1%[15.4 µM] | . | 2.9 | -0.4% | -9.7% | -0.9%
COc1ccc2nc(C)cc(SCC(=O)N/N=C/c3ccc(O)cc3O)c2c1 | 19.0% | -15.3% | 2.2 | 2.6 | 0.3% | ? | -0.7%
COc1cc(OC)cc(C(=O)NCC(=O)OCc2ccc(Cl)c(Cl)c2)c1 | . | -28.4% | . | -1.4 | 0.1% | ? | -2.3%
COc1ccc(S(=O)(=O)Nc2nnc(C(C)(C)C)s2)cc1 | 17.8µM* | -34.6% | 1.8 | -2.9 | 12.2%[38.3 µM] | -21.3% | 1.4%
Cc1ccc(OC(=O)CCC(=O)Nc2ccc(Br)cc2)cc1 | 23.8% | -1.1% | 1.6 | 0.7 | 0.2% | 11.6% | -2.2%
COc1ccc(-c2cc(C(=O)N(C)Cc3ccc(OC)c(OC)c3OC)c3ccccc3n2)cc1OC | . | -3.1% | . | ? | -1.2% | -16.1% | ?
CCOC(=O)C1=C(C(F)(F)F)Nc2ncnn2C1c1cc(OC)ccc1OC (centres undefined) | 10.7% | -7.0% | 5.9 | -0.2 | -0.2% | -4.2% | 1.6%
CC1(C)Cc2ccccc2C(NNC(=O)c2ccc(Br)o2)=N1 | . | -19.9% | . | 2.5 | -0.5% | 0.0% | 1.5%
C/C(=N\Nc1ccccc1)c1cccc(N)c1 | -9.7% | -2.4%[15.4 µM] | 0.1 | 9.9 | 1.1% | -0.9% | -2.6%
NS(=O)(=O)c1ccc(OC(=O)CNC(=O)OCc2ccccc2)cc1 | . | -2.5%[15.4 µM] | . | -2.1 | 0.6% | -5.0% | -0.7%
CCc1ccc(-c2nc(CSCC(=O)NCCCN3CCCC3=O)c(C)o2)cc1 | 17.1% | -15.3% | -1.3 | -0.4 | -2.3%[38.3 µM] | -1.9% | ?
O=C(C1CCN(S(=O)(=O)c2ccc3c(c2)OCCO3)CC1)N1CCc2ccccc21 | 6.2% | -19.7% | 1.4 | 1.3 | 2.5%[38.3 µM] | -7.4% | -2.2%

More structures.
SMILES | Sfp inh | gsp agonist | Menin-MLL FL inh | D2 ag | PINK1 expr mod | gsp antag | ClpP mod
CCOC(=O)C(Cc1ccccc1)c1ccnc2nc(N)nn12 (centres undefined) | 21.7% | -4.2% | -2.6 | 0.2 | 0.6% | -3.0% | 3.7%
CCC(C)(C(=O)Nc1ccccc1C)N(C(=O)CNC(C)=O)c1ccccc1C (centres undefined) | 5.1% | -26.5% | 2.2 | -0.6 | 1.7% | 15.4% | 1.4%
COc1cc(C(=O)N(C)C2CCCN(Cc3ccccc3F)C2)cc(OC)c1OC (centres undefined) | 15.9% | -7.4%[15.4 µM] | 0.4 | -3.9 | 0.0% | -13.3% | 0.2%
Cc1nn(C(C)(C)C)c(OC(=O)CC(C)C)c1S(=O)(=O)c1ccccc1 | 11.2% | 28.1%[15.4 µM] | 3.1 | 3.7 | -1.0% | 6.4% | .
COC(=O)C1SCC2C(=O)N(Cc3ccc(Cl)c(Cl)c3)CC(=O)N21 (centres undefined) | 0.7% | 0.1% | 0.9 | 1.1 | 1.1% | 7.1% | -0.5%
COc1ccc(NC(=O)NS(=O)(=O)c2ccc(C)cc2)cc1OC | . | 1.0% | . | 0.1 | -1.1% | 2.2% | -0.1%
OCCOc1ccc(C2=NCCO2)cc1 | 17.4% | -33.6%[inhibitor] | 2.5 | -2.6 | 2.2%[38.3 µM] | 7.7% | 1.4%
Cc1cc(=O)[nH]c(SCC(=O)N2CCC(C(N)=O)CC2)n1 | 0.0% | -11.8% | -0.2 | 0.0 | ? | 5.5% | -0.6%
O=C(CSc1nnc(CNC(=O)c2ccccc2F)o1)NCC1CCCO1 (centres undefined) | 12.6% | -38.1%[inhibitor] | -2.5 | -0.4 | 0.4% | 8.6% | -3.2%
Cc1onc(-c2ccccc2Cl)c1C(=O)Nc1sc2c(c1C#N)CCC2 | 17.8µM* | 11.3% | ? | -0.2 | . | 12.5% | -7.9%
CO/N=C(/CNC(=O)c1ccc(Cl)cc1Cl)c1ccc(Cl)cc1 | 28.9% | -27.0% | 0.2 | -2.1 | 8.7% | 0.2% | -3.2%
COc1cc(C2NC(=O)NC(c3ccccc3)=C2C(C)=O)c(Br)cc1OCC(N)=O (centres undefined) | 18.5% | -6.2%[15.4 µM] | -2.2 | 4.5 | 0.8% | 7.8% | -0.7%
O=C(Oc1ccc(OC(=O)c2ccncc2)cc1)c1ccncc1 | . | 0.0% | . | -1.4 | -0.2% | 9.2% | 0.1%
CCOC(=O)N/N=C/c1c(C)nn(-c2cccc(C(F)(F)F)c2)c1Cl | ? | 0.0% | 5.4 | 3.7 | 4.8% | 7.7% | -1.7%
Cc1ccc(-c2nc3ncccc3o2)cc1N | 2.0% | 36.2% | -7.1 | 1.2 | 0.7% | 4.6% | -1.4%
Cc1cc(C)c(NC(=O)CN(C)C(=O)CCN2C(=O)C3CCCCC3C2=O)c(C)c1 (centres undefined) | . | -6.0% | . | -2.7 | 0.3% | . | -1.2%
Cc1cc(Cc2ccc([N+](=O)[O-])cc2)c(C)cn1 | 21.3% | -17.9%[15.4 µM] | 0.8 | -0.8 | -0.5% | -0.1% | -1.8%
COc1ccc(NC(=O)c2cc(-c3ccc(C)cc3)on2)cc1OC | 0.4% | 8.7%[15.4 µM] | -3.1 | 4.9 | -0.4% | -12.6% | ?
Cc1cc(C)n(Cc2ccc(Cl)c(Cl)c2)c(=O)c1S(=O)(=O)c1ccccc1 | 1.4% | -20.8% | -3.7 | -5.8 | 9.6% | 3.8% | -1.7%
CC1(c2ccc3noc(-c4ccccc4)c3c2)OCCO1 | 6.1% | -21.3% | 0.6 | 14.4 | 2.9% | -0.1% | -0.8%
Cc1cnc(C(=O)N(c2ccccc2)C(c2ccccc2)c2nc3ccccc3[nH]2)cn1 (centres undefined) | . | . | . | 3.0 | 1.0% | . | -2.0%
CC(C)CCNC(=O)NC(=O)COC(=O)C1CCN(S(=O)(=O)c2ccccc2F)CC1 | 11.8% | 19.6% | -0.3 | 0.1 | 0.8% | -4.1% | -2.5%
O=C(COC(=O)c1cc(Cl)ccc1O)NNC(=O)c1ccc([N+](=O)[O-])cc1 | . | 9.9%[15.4 µM] | . | -2.1 | 1.4% | 23.9% | 1.3%
Cc1c(C(=O)Nc2nc3ccccc3[nH]2)oc2c(Cl)cccc12 | 4.4% | 10.4% | 2.3 | 1.5 | 13.6% | -4.0% | .
CN(C)CCOc1ccc(-c2c(-c3ccccc3)sc3ccccc23)cc1 | . | . | . | 10.2 | -0.4% | 7.9% | ?

(continued)
SMILES | Sfp inh | gsp agonist | Menin-MLL FL inh | D2 ag | PINK1 expr mod | gsp antag | ClpP mod
CNC(=O)COC(=O)c1ccc(Cl)c(S(=O)(=O)N2CCCC2)c1 | 2.7% | ? | -1.6 | -1.0 | 2.3% | 9.4% | .
O=C1OC(c2ccc(Br)cc2)=N/C1=C\c1ccco1 | 22.1% | 1.3%[15.4 µM] | -0.2 | -4.4 | -0.7% | 7.0% | .
CC(C)(C)c1cc2nc3c(c(=O)n2[nH]1)CN(Cc1ccccc1)C3=O | 7.9% | 15.1% | 1.5 | -3.5 | 2.2% | -7.1% | ?
O=C1CC(c2ccccc2)c2ccccc21 (centres undefined) | 21.2% | -28.6% | -0.9 | -0.7 | 1.8% | 3.7% | .
CCc1ccc2c(c1)c1nc(C)sc1n2CC | 28.2µM* | -5.7% | 3.7 | -3.9 | 0.2% | -7.7% | 0.7%
Cc1ccc(NC(=O)CC2NCCNC2=O)cc1 (centres undefined) | 7.5% | -19.9% | 2.5 | -3.9 | -0.3% | 1.8% | -0.2%
N#Cc1c(/N=C/c2ccc(-c3ccc(C(=O)O)c(Cl)c3)o2)sc2c1CCCC2 | . | 9.6% | . | ? | 0.8% | -3.6% | 35.5µM*
CCCCC(=O)Nc1nnc(S(=O)(=O)N(C)Cc2ccco2)s1 | -1.1% | ? | . | -5.8 | -0.8% | 3.0% | -2.7%
CC(OC(=O)c1cccnc1Cl)C(=O)NCc1ccccc1 (centres undefined) | . | 1.8% | . | 1.0 | -0.3% | 9.1% | 0.5%

Assay outcomes (PubChem BioAssay)
